Calb FLC: C. albicans growth modulation with fluconazole. C. albicans CaCi-2 (fluconazole-resistant clinical isolate) + fluconazole, Alamar Blue growth, 48 h. growth inhibition, % (test concentration not listed). hit rate 0.57% among 300,000. AID 1979;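 active = most replicates above 75%; inconclusive = exactly half above 75%; inactive = most below 75%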;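 also: all wells also contain fluconazole at 8 µg/ml as a sub-toxic cotreatment; 0% = median of DMSO wells and 100% = median of geldanamycin control wells; wells of about 8 µL received 7.5 nL stock; the first replicate is given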
Beta apoptosis: beta cell apoptosis inhibition; INS-1E cytokine-induced death, ATP luminescence, 48 h; percent of positive-control rescue, neutral wells zero; AID 435005; hit rate 0.8% among 300,000; protection from apoptosis, % (concentration not given with the values);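 active = all replicates at 75% or more, or half of them and the mean; inconclusive = half reach 75% but not the mean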;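 also: 0% = cytokine-treated negative control wells and 100% = positive control rescue; higher means more ATP so stronger rescue from cytokine killing; wells of about 40 µL received 100 nL stock; the first replicate is given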
A1 inh: inhibitors of the anti-apoptotic protein A1, read as caspase activation; MEF A1-2A-BIM cells, Caspase-Glo 3/7 luminescence, 3 h; percent of clofoctol response, vehicle zero; caspase activation, % (no concentration beside the values); hit rate 0.066% among 330,000; AID 2462;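 active = over half of replicate activation scores above 10%, or exactly half above 10 with the replicate mean above 10; inconclusive = replicate mean below 10 yet half the replicates above 10; inactive = over half of replicates below 10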;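 also: wells of about 30 µL received 50 nL stock; many hits fall short of the cut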
T cruzi inh: blocks replication of Trypanosoma cruzi. T. cruzi beta-gal in NIH3T3, luminescence, 90 h. hit rate 1.4% among 300,000. inhibition, % (concentration not given with the values);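 active = mean inhibition across valid replicates above about 55%, limit read from the data; inconclusive = mean below that limit but half or more replicates reach it; inactive = mean below it, under half of replicates reach it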;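 also: signal also drops with host cell toxicity which is not excluded here; 0% = plate median of DMSO wells and 100% = zero luminescence signal; higher percent means less beta-gal luminescence so fewer parasites; stock transfer was 50 nL into about 50 µL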
RanGTP-Imp inh: disruptors of Ran-importin-beta complex formation – biochemical, FRET, CFP-Ran, YFP-importin-beta, homogeneous, primary screen | cell-free CFP-Ran/YFP-importin-beta FRET ratio | inhibition, % (no concentration beside the values) | hit rate 1.1% among 300,000 | AID 2216;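 active = most replicates above 15%; inconclusive = exactly half above 15%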;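 also: 0% = DMSO wells and 100% = Ran loaded with GDP instead of GTP; wells of about 40 µL received 100 nL stock; the first replicate is given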
Ecoli rRNA inh: inhibits bacterial ribosomal RNA function over humanized ribosomes | hit rate 1.6% among 350,000 | GFP signal change (wild-type ribosome), % (concentration not given with the values) | E. coli WT GFP vs humanized-ribosome RFP mutants, fluorescence, 24 h; active compounds read low; DMSO median 0, no signal -100;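 active = significant combined selectivity score with lowered wild-type GFP, culture density cut under 30%, mutant RFP and density less affected; inactive = any of these conditions unmet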; also: one replicate is shown; some compounds called inactive have numbers as strong as hits
AF4-AF9 inh: blocks AF4 peptide binding to human AF9; P42568; AlphaScreen, biotin-AF4 peptide binding to FLAG-AF9; inhibition, % at 10 µM; hit rate 0.47% among 350,000;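 active = every replicate reaching a set inhibition limit, whatever the replicate mean, cut at about 25% in these data; inconclusive = mean inhibition reaches that limit but some replicates miss it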;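 also: 0% = plate neutral control median and 100% = total signal loss; the record names both 10 and 1 µM as test concentration; the first replicate is given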
Target sequence (P42568 whole entry, looked up): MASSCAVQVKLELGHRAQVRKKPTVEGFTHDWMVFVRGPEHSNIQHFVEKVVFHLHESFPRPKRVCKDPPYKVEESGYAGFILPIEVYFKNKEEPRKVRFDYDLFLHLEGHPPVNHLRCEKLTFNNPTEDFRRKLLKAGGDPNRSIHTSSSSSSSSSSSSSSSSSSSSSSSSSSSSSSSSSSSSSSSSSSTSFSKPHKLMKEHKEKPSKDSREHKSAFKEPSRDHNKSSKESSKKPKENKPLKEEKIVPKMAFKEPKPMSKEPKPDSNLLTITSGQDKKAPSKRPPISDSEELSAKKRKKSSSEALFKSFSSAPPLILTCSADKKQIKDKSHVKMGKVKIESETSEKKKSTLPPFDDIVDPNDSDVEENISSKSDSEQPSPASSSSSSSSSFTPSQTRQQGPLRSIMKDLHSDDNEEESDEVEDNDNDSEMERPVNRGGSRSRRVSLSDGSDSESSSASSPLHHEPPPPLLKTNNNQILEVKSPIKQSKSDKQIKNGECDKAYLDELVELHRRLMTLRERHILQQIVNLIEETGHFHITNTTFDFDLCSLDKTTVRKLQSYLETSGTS
Vif A3G: HIV-1 Vif–A3G interaction blockers – biochemical, TR-FRET, GST-Vif 1-94, biotin-A3G peptide, dose response retest, primary screen (AID 1117319); TR-FRET GST-Vif / biotin-A3G peptide binding; higher % means a stronger effect; test concentration not given here; strong numbers were not always called active; one-dose inhibition, %; IC50 in µM for titrated hits; hit rate 0.57% among 260,000;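 active = above the screen mean plus three standard deviations and confirmed in dose response; inconclusive = results disagree or hit not tested in dose response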;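 also: Vif residues 1-94 fused to GST binding biotinylated APOBEC3G peptide 110-148; 0% = full assay without inhibitor and 100% = GST in place of GST-Vif; retest series ran down from 100 µM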
Ecoli rRNA inh OD600: second read-out of Ecoli rRNA inh, no call of its own (marks repeat the call); OD600 change, %; measured here: OD600 growth;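 optical density of the mix in the first replicate; 0 = DMSO median and -100 = no signal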
Ecoli rRNA inh RFP: also measured in Ecoli rRNA inh; calls as there; RFP signal change, %; measured here: RFP humanized mutant strains;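 first replicate; 0 = DMSO median and -100 = no signal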
Starred values were filed as active, the others as inactive; u = inconclusive; x = no result given; & = joins results of further samples.

SMILES	Calb FLC	Beta apoptosis	A1 inh	T cruzi inh	RanGTP-Imp inh	Ecoli rRNA inh	Ecoli rRNA inh OD600	Ecoli rRNA inh RFP	AF4-AF9 inh	Vif A3G
COc1ccc(NP(=O)(Nc2ccc(OC)cc2)Oc2ccccc2)cc1	-11	-6	-1.6	11	-2.6	x	x	x	x	18%
Cc1nn(Cc2ccccc2Cl)c(Cl)c1C(=O)O	-1	-3	-0.5	-5	-1.6	6	4	-1.2	-3.1	u
COc1ccccc1-n1c(/C=C/c2ccc(O)cc2)nc2ccccc2c1=O	16	13	0.4	25	-13	-9	0	-1.0	3.4	-4%
CNCCc1ccc(OC)c(OC)c1	-1	-1	0.2	-13	-0.5	x	x	x	4.0	x
COc1cc2c(cc1OC)-c1c(OC)c(OC)cc3c1[C@H](C2)[N+](C)(C)CC3	7	-5	-0.5	-19	2.2	-25*	-16*	-7.3*	-6.4	11%
COc1ccc(NC(=O)c2cn(CCC#N)nc2-c2ccc([N+](=O)[O-])cc2)cc1	0	-17	0.0	1	2.2	13	12	-1.2	-0.8	32%
Cc1cccc(NC(=O)[C@@H](NC(=O)N2C[C@H]3C[C@@H](C2)c2cccc(=O)n2C3)C(C)C)c1	-5	2	-0.1	-2	3.3	-3	-3	0.4	-0.7	x
C=CCn1c(O)c(C(CC)=Nc2ccc(C(=O)O)cc2)c(=O)[nH]c1=O	-1	-5	-0.1	0	-2.9	0	5	6.2	5.9	1%
CSc1ncc(/C=C2/C(=O)NC(=O)N(c3ccc(C(C)C)cc3)C2=O)cn1	-5	-2	-0.3	-2	3.6	x	x	x	x	28%
Oc1cc2c(cc1O)[C@H]1c3ccccc3CN[C@@H]1CC2	x	-7	-0.4	18	0.8	x	x	x	x	-8%
CC1=NN(c2ccccc2)C(=O)/C1=C/c1c(O)[nH]c(=S)[nH]c1=O	-3	1	0.5	-20	-1.4	x	x	x	x	7%
C[N+](C)(C)Cc1ccccc1	2	-2	0.1	2	0.5	16	14	-0.2	-1.6	33%
COc1ccccc1N1CCN(Cc2ccc(Br)cc2)CC1	1	x	-0.2	14	7.2	-28*	-22*	-1.1*	11	-1%
O=c1[nH]c(O)c(/C=C2/C=CC(c3cc(Cl)ccc3Cl)=N2)c(=O)[nH]1	2	-1	-0.3	-11	38*	-4	-5	-0.1	-7.8	>100µM*
O=C1CN(C(=O)CN2CCCCC2)C(c2ccccc2)c2cc(Br)ccc2N1 (stereo not drawn)	-9	-2	-0.1	7	-3.0	x	x	x	x	1%
CN(C(=O)c1ccc(Cl)nc1)C1(c2ccccc2Cl)CCCCC1=O (stereo not drawn)	5	x	0.1	0	-2.9	20	17	1.5	-1.8	13%
C(=N\NC1=NCCCCC1)/c1c[nH]c2ccccc12	-5	8	-0.4	2	-2.2	9	0	-9.4	-15	x
CC1CCC(C(C)C)C(OC(=O)Cn2c(COc3ccccc3)[n+](C)c3ccccc32)C1 (stereo not drawn)	-5	106*	0.7	73*	u	-51	-82	-29	25*	-3%
O=C(c1cc(-c2ccccc2)on1)N1CCC2(CC1)OCCO2	2	9	1.4	18	2.9	x	x	x	x	5%
CNS(=O)(=O)c1ccc(N=Cc2c(O)n(-c3cccc(C)c3)c(=O)[nH]c2=O)cc1	2	-7	0.1	-8	-0.5	-2	-6	-0.9	-1.8	3%

A second format for some results above:
canonical_smiles,Calb FLC,Beta apoptosis,A1 inh,T cruzi inh,RanGTP-Imp inh,Ecoli rRNA inh,Ecoli rRNA inh OD600,Ecoli rRNA inh RFP,AF4-AF9 inh,Vif A3G
CC1=NN(c2ccccc2)C(=O)/C1=C/c1c(O)[nH]c(=S)[nH]c1=O,-3,1,0.5,-20,-1.4,x,x,x,x,7%
C[N+](C)(C)Cc1ccccc1,2,-2,0.1,2,0.5,16,14,-0.2,-1.6,33%
COc1ccccc1N1CCN(Cc2ccc(Br)cc2)CC1,1,x,-0.2,14,7.2,-28*,-22*,-1.1*,11,-1%
O=c1[nH]c(O)c(/C=C2/C=CC(c3cc(Cl)ccc3Cl)=N2)c(=O)[nH]1,2,-1,-0.3,-11,38*,-4,-5,-0.1,-7.8,>100µM*
O=C1CN(C(=O)CN2CCCCC2)C(c2ccccc2)c2cc(Br)ccc2N1 (stereo not drawn),-9,-2,-0.1,7,-3.0,x,x,x,x,1%
CN(C(=O)c1ccc(Cl)nc1)C1(c2ccccc2Cl)CCCCC1=O (stereo not drawn),5,x,0.1,0,-2.9,20,17,1.5,-1.8,13%
C(=N\NC1=NCCCCC1)/c1c[nH]c2ccccc12,-5,8,-0.4,2,-2.2,9,0,-9.4,-15,x
CC1CCC(C(C)C)C(OC(=O)Cn2c(COc3ccccc3)[n+](C)c3ccccc32)C1 (stereo not drawn),-5,106*,0.7,73*,u,-51,-82,-29,25*,-3%
O=C(c1cc(-c2ccccc2)on1)N1CCC2(CC1)OCCO2,2,9,1.4,18,2.9,x,x,x,x,5%
CNS(=O)(=O)c1ccc(N=Cc2c(O)n(-c3cccc(C)c3)c(=O)[nH]c2=O)cc1,2,-7,0.1,-8,-0.5,-2,-6,-0.9,-1.8,3%

(more compounds)
SMILES	Calb FLC	Beta apoptosis	A1 inh	T cruzi inh	RanGTP-Imp inh	Ecoli rRNA inh	Ecoli rRNA inh OD600	Ecoli rRNA inh RFP	AF4-AF9 inh	Vif A3G
O=C1C(Cl)=CC(=Nc2ccc(O)cc2)C=C1Cl	x	-1	-1.4	x	x	6	14	-3.3	36*	x
CCOC(=O)c1nc2ccccc2c(=O)n1-c1cccc(C)c1	-10	-2	-0.1	-16	1.3	x	x	x	x	-3%
COc1ccc(C(CC(=O)N2CCC3(CC2)OCCO3)NS(=O)(=O)c2ccc(F)cc2)cc1 (stereo not drawn)	11	-7	0.3	0	3.4	x	x	x	x	-2%&-6%
CCCCCc1nc2ccccc2c(=O)n1-c1ccccc1[N+](=O)[O-]	14	0	0.3	9	u	-29	-38	-8.2	8.1	x
Cc1ncc(CN2CCCC(C(=O)c3cccc(Cl)c3)C2)s1 (stereo not drawn)	-10	0	0.3	8	-1.1	-33	-41	-8.4	2.2	1%
O=c1[nH]c(O)c(C=Nc2cccc(F)c2)c(=O)[nH]1	8	0	1.6	0	4.8	5	19	0.7	0.4	-11%
CN(C)Cc1c[nH]c2ccccc12	x	-5	0.6	x	x	1	6	-6.7	1.1	x
O=C(c1cccs1)N1C2CCC1CC(O)(c1cccnc1)C2 (stereo not drawn)	-6	0	0.8	-10	1.6	x	x	x	x	-6%
CCN(CC)CCNCC(=O)Nc1ccc(Cl)cc1C(=O)c1ccccc1	-2	6	1.6	7	1.0	x	x	x	x	7%&-7%
COc1cc(-n2c(=S)[nH]c3ccc(C)cc3c2=O)c(Cl)cc1Cl	5	x	x	35	2.1	-57	-77	-13	2.2	x
COc1cccc(O)c1CN1CCCC(C(=O)c2sccc2C)C1 (stereo not drawn)	-19	-6	-0.7	25	1.1	0	-10	-4.1	1.2	3%
COc1ccc(OC)c(C(c2c(O)c3ccccc3oc2=O)c2c(C)n(C)n(-c3ccccc3)c2=O)c1 (stereo not drawn)	18	-1	0.5	-5	3.8	-3	-2	-1.7	-6.1	-1%
COc1ccc(/C=C/C(=O)c2c(O)n(CCC3=CCCCC3)c(=O)[nH]c2=O)cc1OC	6	-5	0.2	-17	-1.3	8	6	5.7	3.8	6%
O=c1[nH]c(=S)[nH]c(O)c1N=Nc1ccc2c(c1)OCO2	19	21	0.9	-25	-6.6	26	19	2.4	-1.6	3%
O=C1NC(=S)NC(=O)C1=Cc1cccn1-c1ccc(O)cc1	28	x	x	-64	3.8	-8	8	-0.6	-2.3	u
CN1CCN(c2ccc([N+](=O)[O-])c(NCC3CCCO3)c2)CC1 (stereo not drawn)	-2	-4	1.3	26	-1.1	x	x	x	x	14%
COc1c(C=C2C(=O)NC(=O)NC2=O)c(CCN(C)C(=O)c2ccccc2)cc2c1OCO2	30	x	-0.5	-3	0.3	x	x	x	-3.0	x
CCC(=O)N1CC(=O)Nc2ccc(F)cc2C1c1ccccc1 (stereo not drawn)	3	-5	-0.3	-16	0.6	12	5	-0.5	-4.2	-1%
COc1ccc(CCNC(=O)c2c(N)n(CCN3CCOCC3)c3nc4ccccc4nc23)cc1	-6	1	-1.7	35	69*	x	x	x	x	0%
C[C@@]1(CO)[C@H](O)CC[C@@]2(C)[C@H]1CC[C@H]1C[C@@H]3C[C@@]12CC[C@]3(O)CO	x	5	4.5	36	0.1	x	x	x	x	u
CC(c1ccccc1F)n1cc(C(=O)Nc2ccc3nc[nH]c3c2)nn1 (stereo not drawn)	-5	-2	-0.9	11	1.5	x	x	x	x	8%
CC1CN=C(Nc2ccc(F)cc2)S1 (stereo not drawn)	8	-6	0.5	-20	1.3	3	14	1.8	0.7	20%
C=C(C=O)CC1CC(O)[C@]2(C)OC3CC4OC5C[C@]6(C)O[C@]7(C)CCC8OC9C[C@]%10(C)OC%11C(C)=CC(=O)OC%11CC%10OC9C[C@@H](C)C8OC7CC6O[C@]5(C)CC5OC5C4OC3CC2O1 (stereo partly drawn)	-11	101*	0.5	46	4.1	x	x	x	x	-1%
O=C1NC(=O)C(=Cc2cn(CCOc3ccc4c(c3)OCO4)c3ccccc23)C(=O)N1	1	3	-0.7	-3	-19	x	x	x	x	18%
C=CCn1c(O)c(C(CC)=Nc2cc(OC)ccc2OC)c(=O)[nH]c1=O	11	2	-0.4	10	-1.7	x	x	x	x	29%
COc1cc2c(cc1OC)C(c1c(O)n(CCc3ccccc3)c(=S)[nH]c1=O)NCC2 (stereo not drawn)	-4	-3	-0.3	13	2.0	11	1	60	-4.7	-6%
Clc1ccccc1Nc1ncnc(-n2cccc2)n1	16	-6	-4.5	2	u	x	x	x	x	11%
CC(C)CC12CN3CCN(CC(C3)/C1=N/O)C2	u	-7	-0.5	-8	1.9	x	x	x	x	-2%
O=C(COC(=O)c1cccc(O)c1)Nc1ccc(Cl)cc1C(=O)c1ccccc1	8	0	0.6	3	2.3	-23*	-8.6*	5.5*	-0.4	67%
CCc1ccc(CNCCc2ccc(F)cc2)cc1	-22	-5	-0.4	59*	7.1	5	-20	2.4	4.1	4%
CCCCCCNC(=O)N[C@H](Cc1ccc(O)cc1)C(=O)NCCC[C@H]1CN2C(=NC[C@H]2CCC)N1CC1CCC1	1	2	0.5	4	-1.7	x	x	x	x	x
c1cncc(CNCCc2c[nH]c3ccccc23)c1	4	-2	-0.4	18	-9.0	9	-1	6.0	3.4	-1%

Compound activity as filed in PubChem BioAssay.

These rows are one share of the data, so the mix of outcomes need not match the whole.
